Screening results as filed in PubChem BioAssay.
ClpP mod – qHTS Assay for Activators of ClpP; ATP-dependent Clp protease proteolytic subunit (Bacillus subtilis (strain 168)), P80244; purified B. subtilis ClpP, FRET peptide cleavage, 20 min; Potency, µM (titrated, usually from 57.5 µM), without a hit: top-dose activity change, negative = active; actives 1.9% (n = 340,000); AID 651965, 2013; active = well fitted falling curve with a large enough effect; inconclusive = small, poorly fitted or top-dose-only effect; inactive = no such curve, though single readings can be large or run the other way; also: potency is read from the fitted curve at half-maximal effect; the source files actives as falling curves though it sought activators and does not explain the sign; nearly all actives have a fitted effect of over 65% in size; many hits overshoot -100%
Target sequence (P80244 whole entry, looked up): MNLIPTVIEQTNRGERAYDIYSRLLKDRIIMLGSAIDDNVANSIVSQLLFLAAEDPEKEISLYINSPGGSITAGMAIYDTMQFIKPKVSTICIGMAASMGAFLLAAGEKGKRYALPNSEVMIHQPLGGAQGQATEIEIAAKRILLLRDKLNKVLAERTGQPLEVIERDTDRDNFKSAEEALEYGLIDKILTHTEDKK
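ClpP 10 microg/mL final, pH 8 Tris/KCl buffer with BSA, glycerol, Tween-20; compound pinned in; FRET-FV substrate; RT 20 min; Ex320/Em430; ΔFRET vs ADEP 5.8 microM, DMSO, no enzyme.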
Menin-MLL FL inh – displaces fluorescein MLL peptide from human menin | Fluorescence polarization, fluorescein-MLL peptide displacement from menin | FP activity change, % at 61.4 µM | 290,000 tested, under 10 active | AID 1766; inconclusive = falling polarisation curve, or a change in total fluorescence; inactive = total fluorescence flat and polarisation flat or rising; no compound was filed as active; the % refers to the polarisation; negative = inhibition;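 also: % of control where 0% means no effect; inhibitors lower the polarisation; unlabelled MLL peptide was the positive control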
PINK1 modulator – PINK1 expression modulation; PINK1 immunofluorescence, high-content cytometry, 24 h; Potency, µM (doses to about 76.6 µM), for the others: at the highest dose activation (PINK1 increase), hits mostly activators; actives 0.2% (n = 410,000); AID 624263; active = well fitted activation curve with a large enough effect; inconclusive = small, poorly fitted or top-dose-only effect; inactive = flat fitted curve, though single readings scatter; cell line not stated here;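 also: potency is read from the fitted curve at half-maximal effect; % of control where 0% means no effect; nearly all actives have a fitted effect of over 65% in size; a mitochondrial uncoupler was the plate control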
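Measures PINK1 amount and localization on or inside mitochondria by immunofluorescence. Stable cells get compounds at 5 concentrations for 24 hours before fixation and staining; CCCP controls included.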
Sfp inh – inhibitors of Bacillus subtilis Sfp phosphopantetheinyl transferase; Biochemical Sfp PPTase activity, qHTS; Potency, µM, inactives show max response, negative = inhibition, hits mostly inhibitors; actives 3.5% (n = 310,000); active = well fitted inhibition curve with a large enough effect; inconclusive = small, poorly fitted or top-dose-only effect, or another doubt; inactive = no such curve, though single readings can be large or run the other way;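 also: the enzyme is Sfp with the accession as filed and its product quenches rhodamine fluorescence; potency is read from the fitted curve at half-maximal effect; 0% = enzyme reaction without inhibitor and -100% = no enzyme wells; top concentration of the series not given in the record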
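Buffer: 50 mM Hepes-Na pH 7.6, 10 mM MgCl2, 0.01% Nonidet P-40, 0.01% BSA. Enzyme 15 nM, pre-exposed to compound 15 min; substrates then added and fluorescence change tracked over 30 min.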
TRPV1 potentiator – human TRPV1 potentiation; actives 0.02% (n = 320,000); TRPV1-expressing cells, Fluo-8 calcium influx, capsaicin EC20 potentiation; host cell line not named in the record; control for the full effect not named in the record; potentiation, % at 8.33 µM; AID 540277; Q8NER1; active means potentiation above 80%; inconclusive means 30% to 80%; inactive means below 30%; also: 0% is about no effect
Target sequence (Q8NER1 whole entry, looked up): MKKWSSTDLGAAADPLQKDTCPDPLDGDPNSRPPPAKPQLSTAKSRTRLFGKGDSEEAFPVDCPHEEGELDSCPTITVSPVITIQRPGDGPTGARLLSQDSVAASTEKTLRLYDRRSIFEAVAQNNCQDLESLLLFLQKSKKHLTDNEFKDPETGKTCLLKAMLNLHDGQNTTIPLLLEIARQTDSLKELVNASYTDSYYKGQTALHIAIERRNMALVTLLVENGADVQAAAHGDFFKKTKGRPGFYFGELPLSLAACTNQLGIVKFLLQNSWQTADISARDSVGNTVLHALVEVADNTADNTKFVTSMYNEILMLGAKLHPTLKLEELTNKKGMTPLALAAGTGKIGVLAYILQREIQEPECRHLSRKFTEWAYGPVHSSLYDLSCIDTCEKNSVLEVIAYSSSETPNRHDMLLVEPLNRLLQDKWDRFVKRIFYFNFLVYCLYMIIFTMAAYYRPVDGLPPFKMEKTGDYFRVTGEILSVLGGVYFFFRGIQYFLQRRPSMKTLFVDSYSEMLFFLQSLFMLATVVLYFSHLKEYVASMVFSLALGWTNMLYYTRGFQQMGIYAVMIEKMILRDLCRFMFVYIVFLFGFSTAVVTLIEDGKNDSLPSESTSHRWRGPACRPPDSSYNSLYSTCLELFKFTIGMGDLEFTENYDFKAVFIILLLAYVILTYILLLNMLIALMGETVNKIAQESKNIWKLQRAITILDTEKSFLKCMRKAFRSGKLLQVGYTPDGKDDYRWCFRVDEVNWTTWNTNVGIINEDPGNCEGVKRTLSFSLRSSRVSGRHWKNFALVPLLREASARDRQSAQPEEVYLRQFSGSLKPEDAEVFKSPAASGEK
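TRPV1-expressing cells were cultured overnight at 35.5C and loaded with Fluo-8 calcium dye for 40 to 90 min at room temperature. After a 10 s baseline, compound was added and calcium influx was read kinetically for 3 min (ex 480/em 520 nm).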
TRPML1 inh – human mucolipin-1 channel inhibition. Q9GZU1. TRPML1-inducible cells, Ca2+ dye fluorescence, FDSS; active compounds read low; inhibition of EC80 agonist-evoked calcium signal. activity change, negative = inhibition, % (no concentration beside the values). actives 0.02% (n = 390,000). AID 624415; in the data active means activity change below about -50%; inconclusive means about -30% to -50%; inactive means above about -30%;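 also: stimulus is agonist 54-4 at its EC80 concentration; % is scaled to controls: 0 for no effect and ±100 for the full control effect; compound concentration not given in the record; the text of the record puts the active cut at -80%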
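TRPML1-DL cells, Tet-induced overnight (~16 h, 37 °C) at 1,500 cells/well, were loaded with Ca8 no-wash dye plus quencher for 45-90 min at room temperature. Compounds were pinned during FDSS kinetic reading; agonist 54-4 at EC80 (4 uM final) then added.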
TRPML1 agonist – agonists of human TRPML1 channel; Q9GZU1; TRPML1-expressing cells, Ca2+ dye fluorescence, FDSS; host cell line not named in the record; reference of the full effect not given here; activation, % (concentration not given with the values); actives 0.12% (n = 410,000); in the data active = activation above about 50%; inconclusive = about 30% to 50%; inactive = below about 30%; also: 0% is about no effect; the text of the record puts the active cut at 80%
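Cells: TRPML1-DL, 1X Tet inducer, ~16 h at 37 degrees C/5% CO2. Dye: ABD Ca8 no-wash + quencher, 45-90 min RT. Read: 10 s baseline, compound add, 110 s agonist phase; 54-4 EC80 (4uM final), 110 s antagonist phase.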
An asterisk follows results filed as active; u = inconclusive; x = not tested or not shown; & = joins results of further samples; [ ] = remark or other dose. Outcome played no part in choosing rows; 4.4% or so of the library scored in one or more.

SMILES	ClpP mod	Menin-MLL FL inh	PINK1 modulator	Sfp inh	TRPV1 potentiator	TRPML1 inh	TRPML1 agonist
O=C(OCN1C(=O)c2ccccc2C1=O)c1cccc(S(=O)(=O)N2CCOCC2)c1	-1.1%	x	1.2%	-3%	1	13	1.1
CN[C@H]1C[C@H]2c3cc(-c4ccccc4)ccc3CCN2C(=O)[C@H]1[C@H](C)O	-3.7%	x	0.0%	x	x	8	0.1
CC(=O)Oc1ccc2c(c1)O/C(=C\c1ccncc1)C2=O	-4.5%	u	-2.0%	3%	-9	-2	0.1
N#Cc1c(-c2cccc(Cl)c2)[nH]c(=S)[nH]c1=O	x	-0.8	-2.4%	u	3	-9	-0.2
O=S(=O)(NCC(c1cccs1)S(=O)(=O)c1ccccc1)c1ccc(F)c(C(F)(F)F)c1 (configuration not stated)	-1.8%	x	0.3%	x	x	40	1.6
O=C(CN1CCOCC1)NNC(=S)Nc1ccc(Cl)cc1	x	0.0	0.1%	16%	2	5	0.1
Cc1ccc(CN(C(=O)c2c(F)cccc2F)C2CC(C)(C)NC(C)(C)C2)o1	-2.6%	-1.2	-3.0%[38.3 µM]	-4%	-1	18	0.6
NNC(=O)CCN1CCN(Cc2ccccc2)CC1	x	1.4	1.8%	-3%	-7	10	-0.2
Cc1ccc(S(=O)(=O)N2CCC(=O)N(CCOC(=O)Nc3ccc(F)cc3)CC2)cc1	1.1%	3.4	6.5%	u	-29	29	-0.5
Cc1cc(=O)oc(C)c1C(=O)NC1CC(C)(C)NC(C)(C)C1	-2.3%	0.7	-1.3%	16%	5	18	0.8
Cc1cc(NC(=O)CSc2nnc(-c3ccco3)n2C)no1	-1.2%	x	0.0%	x	-2	3	0.0
O=c1c2ccccc2nc(/C=C/c2ccccc2)n1CCCO	0.0%	3.3	-0.9%	8%	-20	-3	-0.9
CCNC(=O)Nc1ccccc1C(=O)OC	x	-0.2	-1.0%	-9%	17	9	-0.5
CCOC(=O)c1ccc(NC(=O)c2ccc3c(c2)CCN3S(=O)(=O)c2ccc(Cl)cc2)cc1	-6.6%	x	-0.2%	x	x	-14	0.7
Cc1cc(Cl)c(S(=O)(=O)NCc2cccnc2)cc1OCC(=O)NC1CCCCC1	0.1%	-1.2	x	5%	6	-5	0.8
Cc1ccc(NC(=O)CSc2nc3c(c(=O)[nH]2)CN(Cc2ccc4c(c2)OCO4)CC3)cc1C	0.6%	x	-1.3%	x	x	3	-1.0
CS(=O)(=O)c1ccccc1-c1nnc(NC(=O)c2ccc(S(=O)(=O)N3CCCC3)cc2)o1	-0.8%	x	6.0%	x	-17	6	0.3
C[C@H]1CN([C@@H](C)CO)C(=O)Cc2cc(NC(=O)CCC(F)(F)F)ccc2O[C@H]1CN(C)S(=O)(=O)c1ccc(Cl)cc1	2.2%	x	5.3%	x	x	-8	0.2
Fc1cccc(CNCc2ccc3c(c2)OCO3)c1	-2.5%	0.4	-0.8%	10%	3	-8	0.9
CCOC(=O)[C@H]1[C@H]2COc3ccc(Cl)cc3[C@@H]2N2C(=O)CN(Cc3ccccc3)C(=O)[C@@]12C	-2.3%	x	0.1%	x	-26	45	-0.2

Just PINK1 modulator, TRPV1 potentiator and TRPML1 agonist (2 entries from above):
canonical_smiles	PINK1 modulator	TRPV1 potentiator	TRPML1 agonist
CCNC(=O)Nc1ccccc1C(=O)OC	-1.0%	17	-0.5
CCOC(=O)c1ccc(NC(=O)c2ccc3c(c2)CCN3S(=O)(=O)c2ccc(Cl)cc2)cc1	-0.2%	x	0.7

Next part
SMILES	ClpP mod	Menin-MLL FL inh	PINK1 modulator	Sfp inh	TRPV1 potentiator	TRPML1 inh	TRPML1 agonist
Cc1cc([N+](=O)[O-])nn1CCCC(=O)Nc1cccnc1Cl	-0.3%	0.8	-0.4%	9%	14	-15	-0.4
Cc1ncc(CC(=O)n2cc(C(=O)c3cc(Cl)ccc3O)cn2)s1	1.3%	2.1	-1.9%	11%	-20	-3	-0.8
CC#CC(=O)N1CCC(CCc2ccccc2)(C(=O)OCC)CC1	x	0.4	0.1%	7%	-11	-1	0.5
Cc1nn(C(=O)c2cc([N+](=O)[O-])ccc2Cl)c(C)c1Br	-0.4%	u	-0.9%	-3%	-7	-11	0.7
COc1cccc(-n2c(Cc3cc(=O)[nH]c(=O)[nH]3)nnc2SCC(=O)N2CCC(C)CC2)c1	-0.1%	3.0	1.6%	18%	0	7	0.5
Cc1nn(-c2ccccc2)c(C)c1P(=O)(c1ccccc1)N(C)C (configuration not stated)	-0.9%	-0.2	x	11%	-11	0	0.0
CCc1ccc(-n2c(=S)sc3c(=O)n(-c4ccccc4C)c(SCC(=O)O)nc32)cc1	-2.1%	-2.6	-0.7%	8%	5	13	1.9
COc1ccc2c(c1)OCC(Cc1ccc(OC)c(OC)c1)C2O (configuration not stated)	x	-1.2&3.5	4.4%&0.0%	8%&17%	x	x	x
CC(=O)C1=C(O)CCCC1=NCc1nc2ccccc2[nH]1	0.2%	-3.1	-0.6%	0%	6	2	0.3
COc1ccc(/C(C)=N/NC(=O)CNC(=O)c2cccnc2)cc1OC	x	2.6	-0.2%	9%	5	4	0.4
C[C@@H](NCCCn1ccc(NC(=O)OCc2ccccc2)nc1=O)c1cccc2ccccc12	-1.3%	x	-1.2%	x	x	10	-0.1
CC(C)(NC(=O)c1cc(Cl)c2ccccc2c1O)C(=O)O	4.2%	-1.4	0.0%	17%	-13	-2	0.1
O=C(CC(c1ccc(F)cc1)c1ccco1)Nc1nccs1 (configuration not stated)	x	2.2	0.4%	-6%	-9	24	0.4
CCOC(=O)C1CCN(C(=O)Cc2ccc(OC)c(OC)c2)CC1	-14%	-0.1	1.6%	8%	-18	-3	-0.5
O=C(Cc1cccs1)Nc1ccc(-c2nnn(CC(=O)N3CCOCC3)n2)cc1	-1.0%	7.8	x	-11%	-4	-3	0.3
CCc1cc(-c2n[nH]c(=S)n2N)n(C)n1	-0.5%	-4.4	0.0%	40µM*	-16	-1	-0.3
CCOC(=O)COc1c(C=O)cc(Br)cc1OC	-3.5%	1.8	2.4%[38.3 µM]	35%[activator]	-3	-10	0.2
CSc1ccc(C(=S)N2CCN(C)CC2)cc1	0.4%	0.4	x	6.3µM*	-20	-10	-0.3
COCCn1c(-c2ccc(Cl)cc2)cnc1SCC(=O)NCCc1ccc(OC)c(OC)c1	x	-0.1	0.5%	7%	-5	14	0.7
COc1cccc(NC(=O)c2ccccc2OCC(=O)Nc2ccc(Br)cc2)c1	-13%	x	2.6%	x	x	x	-0.1
COC(=O)c1ccccc1NC(=O)c1nc(-c2ccc(C)cc2)n2c1CCCCC2	-6.4%	x	-1.0%	x	x	-2	3.9
COc1cccc2cc(C(C)OC(=O)Nc3ccc(C)cc3)oc12 (configuration not stated)	-4.6%	-1.8	2.2%	5%	14	3	2.5
O=c1cc(-c2ccsc2)oc2ccccc12	4.2%	x	0.3%	x	x	3	-0.9
O=C(OCc1ccccc1)N1CCC2CC1c1c2cccc1N1CCOCC1 (configuration not stated)	-4.2%	x	0.6%	x	x	x	-0.4
Cc1[nH]c(C)c(S(=O)(=O)Nc2ccc(OC(F)(F)F)cc2)c1C(=O)N1CCCCC1	-0.4%	x	-0.2%	7%	13	-12	0.5
CCOC(=O)c1c(-c2ccccc2)oc2ccc(NS(=O)(=O)c3ccc(OC)cc3)cc12	4.3%	x	6.6%	x	x	-11	2.7
Cc1cccn2c(=O)c3cc(C(=O)NCc4ccc(F)cc4)c(=N)n(CC4CCCO4)c3nc12 (configuration not stated)	3.8%	x	1.2%	7%	-15	19	-0.1
CSc1nnc(-c2ccccc2)n1N	-0.7%	2.8	0.3%	1%	-4	-7	-0.3
Cc1cccc2cc(C#N)c(N3CCCC3)nc12	28µM*	3.8	-0.2%	-14%	-4	-14	6.8
Cc1cccc(NNC(=S)Nc2ccccc2)c1	-1.1%	x	1.7%	x	x	6	0.1
CCn1c(SC)nnc1-c1nnc(SC)n1CC	0.7%	0.5	-0.9%	5%	-1	-4	-1.1
CCCCn1c(SCC(=O)Nc2cccc(C)n2)nnc1-c1ccco1	-0.9%	-1.3	1.0%	-1%	12	-11	0.7
Cc1sc2c(=O)n3c(nc2c1C(=O)NCCCN1CCOCC1)CCCCC3	-2.0%	-1.9	3.5%	-1%	x	0	0.3
Cc1ccc(-c2csc3ncn(-n4c(C)ccc4C)c(=O)c23)o1	-0.3%	5.3	0.9%	-11%	-13	-1	2.2
O=C1CC(N2CCN(Cc3ccccc3)CC2)C(=O)N1c1ccccc1 (configuration not stated)	-0.6%	0.8	-2.3%	15%	-4	20	1.2
Cc1ccc(C2Cc3cc(O)c(O)cc3CN2)cc1 (configuration not stated)	x	x	3.6%	x	x	5	0.8
COc1ccccc1-c1nc(C#N)c(N2CC(C)CC(C)C2)o1 (configuration not stated)	4.5%	-0.4	6.5%	5%	-2	9	2.0
C/C(CC(=O)Nc1ccc(N(C)C)cc1)=N\NC(=O)C(=O)NCc1ccccc1	x	-1.8	-1.6%	12%	0	1	0.7
CN(NC(=O)c1ccc(Cl)cc1Cl)C1=NS(=O)(=O)c2ccccc21	-2.3%	3.5	-0.1%	3%	17	9	0.4
COc1cccc(-c2cc(C(=O)Nc3cc(C)n(Cc4ccc(Cl)cc4)n3)no2)c1	-20%	2.8	u	6%	10	4	0.2
COc1ccc(Cl)cc1N1Cc2ccccc2C1	-0.8%	6.9	1.2%	6%	12	-2	2.7
Cn1nnnc1SCC(=O)Nc1nc(-c2ccc(F)c(F)c2)cs1	-0.2%	x	2.6%	4%	11	-12	1.2
O=c1c2ccccc2[nH]c(=S)n1CCC1=CCCCC1	x	5.1	u	9%	2	7	-0.1
CNC(=O)Nc1ccccc1C(=O)Nc1ccccc1	x	2.6	-2.4%	12%	x	13	1.3
O=C(COc1ccccc1)NCC(c1ccc(Cl)cc1)N1CCOCC1 (configuration not stated)	-0.6%	x	6.1%	x	x	-20	-0.2
O=C(Nc1ccc(Nc2ccccc2)cc1)c1ccc(Br)cc1	-3.3%	-5.2	3.3%	9%	-6	2	-0.3
COc1cc(/C=N/NC(=O)c2cccc(C)c2)ccc1OCC(=O)Nc1ccccc1	1.2%	x	1.7%	x	x	-1	0.3
